# Cruzain Triton = qHTS Assay for Promiscuous and Specific Inhibitors of Cruzain (with detergent) | Cruzipain (Trypanosoma cruzi), P25779 | purified cruzain, Z-FR-AMC fluorescence, 0.01% Triton | Potency, µM, inactives show max response, negative = inhibition, most hits filed as inhibitors | 200,000 tested, 0.43% active | AID 1478, 2009; active = well fitted curve in the direction sought with a large enough effect; inconclusive = small, poorly fitted or top-dose-only effect, or another doubt; inactive = no such curve, though single readings can be large; an effect the other way counts as inactive or inconclusive;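 note: plate controls were neutral wells for no effect and buffer without enzyme for full effect; nearly all actives have a fitted effect of over 40% in size; top concentration of the series not given in the record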
# Target sequence (P25779 123-467 limits assumed): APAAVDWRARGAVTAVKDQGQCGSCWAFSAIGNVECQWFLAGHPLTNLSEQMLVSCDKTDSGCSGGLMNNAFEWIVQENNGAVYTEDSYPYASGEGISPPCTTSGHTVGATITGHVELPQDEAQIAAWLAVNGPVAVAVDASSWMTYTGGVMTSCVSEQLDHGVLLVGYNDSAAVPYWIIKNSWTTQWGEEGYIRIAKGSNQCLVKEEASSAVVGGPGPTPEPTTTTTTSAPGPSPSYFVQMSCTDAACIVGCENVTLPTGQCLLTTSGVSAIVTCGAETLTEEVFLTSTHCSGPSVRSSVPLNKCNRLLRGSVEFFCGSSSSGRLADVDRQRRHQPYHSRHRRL
#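 Purified cruzain (1.5 nM final) was preincubated with compounds for 15 min at room temperature in 100 mM sodium acetate pH 5.5, 5 mM DTT, 0.01% Triton X-100. Reaction started with 2 uM Z-FR-AMC; AMC fluorescence change over 60 s gave activity.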
# StopGo reporter = High Throughput Screening for Foot and Mouth Disease Virus Antivirals | Potency, µM (doses to about 57.9 µM), for the others: top-dose signal change, negative = less light | AID 1159524, 2015 | human cells with a luciferase reporter of 2A StopGo recoding; control for the full effect not named in the record | 410,000 tested, 1.2% active; active = well fitted falling curve with a large enough effect; inconclusive = small, poorly fitted or top-dose-only effect; inactive = no such curve, though single readings can be large or run the other way; tested in HEK293T cells; note: % is set by controls: 0 for no effect and ±100 for the full control effect; nearly all actives have a fitted effect of over 45% in size; luciferase light after 4 h
# RE007 growth inh = qHTS Assay for Inhibitors of the HIV-1 protein Vpr. S. pombe RE007 Vpr strain, BacTiter-Glo ATP luminescence, 24 h; control for the full effect not named in the record. Potency, µM (titrated, usually from 92.2 µM), inactives show at the top dose activity change, negative = less growth. 360,000 tested, 0.21% active; active = well fitted falling curve with a large enough effect; inconclusive = small, poorly fitted or top-dose-only effect; inactive = no such curve, though single readings can be large or run the other way;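 note: % is set by controls: 0 for no effect and ±100 for the full control effect; nearly all actives have a fitted effect of over 50% in size; the assay follows cell death caused by Vpr and the record does not say whether a fall means rescue or toxicity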
#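 Fission yeast RE007 carrying one integrated HIV-1 vpr copy, seeded at OD 0.01 in PMG+AL medium with 23 nL pinned compound. Grown 24 h at 30 degrees; viability read by BacTiter-Glo luminescence after 5 min.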
# Cruzain inh noDet = qHTS Assay for Promiscuous and Specific Inhibitors of Cruzain (without detergent). purified cruzain, Z-FR-AMC fluorescence, no detergent. Potency, µM, for inactives: max response, negative = inhibition, most hits filed as inhibitors. AID 1476, 2009. Cruzipain (Trypanosoma cruzi), P25779. 200,000 tested, 2.3% active; active = well fitted curve in the direction sought with a large enough effect; inconclusive = small, poorly fitted or top-dose-only effect, or another doubt; inactive = no such curve, though single readings can be large; an effect the other way counts as inactive or inconclusive;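 note: plate controls were enzyme without inhibitor for no effect and buffer without enzyme for full effect; nearly all actives have a fitted effect of over 40% in size; top concentration of the series not given in the record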
#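 Detergent-free condition (0.00005% Triton X-100) in acetate buffer pH 5.5 with DTT. 1.5 nM enzyme and compound were pre-mixed 15 min, then 2 uM Z-FR-AMC substrate added; reaction progress from fluorescence change between first and third reads (60 s).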
# LASV entry inh = qHTS for Inhibitors of binding or entry into cells for Lassa Virus; Lassa virus pseudotype entry inhibition, cell reporter; control for the full effect not named in the record; Potency, µM (series often up to 37.9 µM), inactives show at the highest dose activity change, negative = inhibition, most hits filed as inhibitors; 300,000 tested, 1.2% active; AID 540256, 2011; active means well fitted inhibition curve with a large enough effect; inconclusive means small, poorly fitted or top-dose-only effect, or effect the other way; inactive means flat fitted curve, though single readings scatter; tested in HEK293 cells; note: % is set by controls: 0 for no effect and ±100 for the full control effect; nearly all actives have a fitted effect of over 50% in size; luciferase read-out
# Marburg entry inh = qHTS for inhibitors of binding or entry into cells for Marburg Virus; Potency, µM (top dose mostly 37.8 µM), inactives show at the top dose activity change, negative = inhibition, actives largely listed as inhibitors; AID 540276, 2011; 300,000 tested, 1.8% active; Marburg virus pseudotyped entry inhibition, cell reporter; control for the full effect not named in the record; about a third of the inactives were read at about 46 µM; active = well fitted inhibition curve with a large enough effect; inconclusive = small, poorly fitted or top-dose-only effect, or effect the other way; inactive = flat fitted curve, though single readings scatter; tested in HEK293 cells; about a fifth of its hits are not listed in these tables; note: % is set by controls: 0 for no effect and ±100 for the full control effect; luciferase read-out
# NS1 function inh = qHTS Assay for Inhibitors of Influenza NS1 Protein Function; 270,000 tested, 0.4% active; S. cerevisiae slowed by influenza A NS1, growth recovery by OD600; Potency, µM (top dose mostly 46.1 µM), inactives show top-dose activity, positive = more growth; AID 2326, 2010; note: actives are rising curves; nearly all actives have a fitted effect of over 50% in size
#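 Recovery from NS1-induced slow growth read by OD600 in budding yeast switched to galactose assay medium (pH 6.0, -URA) at 1:100 dilution. Compound 23 nl per well; the matching strain lacking NS1 serves as control.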
# SARS PLP yeast = qHTS of Yeast-based Assay for SARS-CoV PLP. Potency, µM (top dose mostly 32.9 µM), for the others: at the highest dose activity, positive = growth rescue. 330,000 tested, 0.19% active. S. cerevisiae expressing SARS-CoV PLpro, growth rescue; control for the full effect not named in the record. AID 485353, 2010; note: 0% is about no effect; nearly all actives have a fitted effect of over 55% in size; growth read by luminescence after 48 h
# Starred values were filed as active, the others as inactive; ? = inconclusive; · = no result given; & = joins results of further samples; [ ] = dose if it differs, or a comment. Unless noted, calls come from the whole dose curve; as a rule, active means well fitted rising curve with a large enough effect; inconclusive means small, poorly fitted or top-dose-only effect; inactive means no such curve, though single readings can be large or run the other way. Potency is the fitted concentration of half-maximal effect.
# Start of the listing, in advance (7 entries):
SMILES,Cruzain Triton,StopGo reporter,RE007 growth inh,Cruzain inh noDet,LASV entry inh,Marburg entry inh,NS1 function inh,SARS PLP yeast
C/C(Sc1nnc(Cc2ccccc2)o1)=C(\O)c1ccccc1,·,43%[activator],9%,·,14%[46.1 µM],-11%[46.1 µM],·,·
COc1ccc(C2CC(c3ccc(Br)cc3)=NN2C(=S)Nc2ccccc2)cc1 (stereo not drawn),·,49%[activator],3%,·,?,-4%,·,-1%
Cc1cc(C)n2cc(CSc3nc4ccccc4[nH]3)nc2n1,-5.5%,16%,-11%,-6%,0%,25%,2%,0%
Cc1onc(-c2ccccc2Cl)c1C(=O)NCCN1Cc2ccccc2C1=O,4.3%,·,3%,11%,-15%,0%,2%,2%
Cc1ccc(C(=O)NCCCC(=O)O)o1,5.6%,5%,13%,7%,0%,3%,0%,0%
COc1cc(NC(=O)c2ccc3c(c2)OCO3)ccc1NC(=O)c1ccco1,-2.1%,15%,11%,4%,-2%,4%[46.1 µM],9%,20%
O=C(CSc1n[nH]c(-c2cccnc2)n1)OC1CCCCC1,·,-7%,6%,·,-6%,7%[46.1 µM],-4%,-1%

# The listing, previewed entries included:
SMILES,Cruzain Triton,StopGo reporter,RE007 growth inh,Cruzain inh noDet,LASV entry inh,Marburg entry inh,NS1 function inh,SARS PLP yeast
C/C(Sc1nnc(Cc2ccccc2)o1)=C(\O)c1ccccc1,·,43%[activator],9%,·,14%[46.1 µM],-11%[46.1 µM],·,·
COc1ccc(C2CC(c3ccc(Br)cc3)=NN2C(=S)Nc2ccccc2)cc1 (stereo not drawn),·,49%[activator],3%,·,?,-4%,·,-1%
Cc1cc(C)n2cc(CSc3nc4ccccc4[nH]3)nc2n1,-5.5%,16%,-11%,-6%,0%,25%,2%,0%
Cc1onc(-c2ccccc2Cl)c1C(=O)NCCN1Cc2ccccc2C1=O,4.3%,·,3%,11%,-15%,0%,2%,2%
Cc1ccc(C(=O)NCCCC(=O)O)o1,5.6%,5%,13%,7%,0%,3%,0%,0%
COc1cc(NC(=O)c2ccc3c(c2)OCO3)ccc1NC(=O)c1ccco1,-2.1%,15%,11%,4%,-2%,4%[46.1 µM],9%,20%
O=C(CSc1n[nH]c(-c2cccnc2)n1)OC1CCCCC1,·,-7%,6%,·,-6%,7%[46.1 µM],-4%,-1%
COc1cc(NC(=O)c2ccco2)c(OC)cc1NC(=O)Nc1ccc(Cl)cc1,-3.8%,·,-9%,?,-26%,-29%,-5%,-9%
O=C(OCCCOC(=O)c1ccc(O)cc1)c1ccc(O)cc1,·,0%,17%,·,0%[46.1 µM],12%[46.1 µM],-19%,12%
Cc1cc2oc(=O)cc(Cn3ccnc3)c2cc1O,·,11%,-2%,·,·,·,6%,2%
Cc1nc(N2CCOCC2)c2c(C(=O)N(C)c3ccccc3)c(C)oc2n1,0.0%,17%,·,-11%,23%[46.1 µM],·,·,·
Cc1ccc(NC(=O)CN2C(=O)c3ccccc3C2=O)cc1,·,15%,-7%,·,8%,11%,11%,4%
COc1ccc2sc3ccccc3c(=O)c2c1,3.1%,41%[activator],-3%,-5%,?,-16%,-58%,-8%
Cc1c(O)c2cccnc2[nH]c1=O,-0.2%,-11%,9%,-16%,3%,3%,12%,3.5µM*
O=C(COC(=O)CNC(=O)c1ccccc1)Nc1nc(-c2ccccc2)cs1,25µM*,60%[activator],0%,?,?,?,2%,-18%
Cc1cc(C)cc(N(CCC#N)C(=O)COC(=O)CNC(=O)c2sc3ccccc3c2Cl)c1,·,-23%,1%,·,?,8%,·,3%
O=C(c1ccccc1)c1ccccc1C(=O)N1CCCC1,-1.5%,15%,21%,-10%,-51%[14.3 µM],?,3%,·
CCCn1c(=O)c(C(=O)NC(C)c2ccccc2)c(O)c2ccccc21 (stereo not drawn),·,-30%,-3%,·,16%,-17%,-14%,-5%
CCOc1ccc(C(=S)N2CCCC2)c(OCC)c1,·,0%,3%,·,2%,-11%,-11%,3%
COc1ccc(S(=O)(=O)N2CCCCCC2)cc1C(=O)Nc1ccc(C)cn1,·,-13%,2%,·,5%,18%[46.1 µM],·,0%
C/C(CC(=O)Nc1cc(Cl)ccc1C)=N\NC(=O)C(=O)N1CCCC1,·,-3%,-7%,·,5%[46.1 µM],13%[46.1 µM],-3%,-1%
O=C(OCC1OC2OC3(CCCCC3)OC2C2OC3(CCCCC3)OC12)c1ccccc1 (stereo not drawn),-4.6%,-14%,-2%,8%,-10%,12%,2%,-25%
COCCN(C(=S)Nc1ccc(OC)cc1)C1CCN(C(C)=O)CC1,-0.1%,?,15%,2%,10%,?,6%,4%
ClC1(Cl)CC1CSc1nnc(-c2ccncc2)o1 (stereo not drawn),·,22%,3%,·,·,·,-34%,-5%
CS(=O)(=O)NCCCCCCNS(C)(=O)=O,·,10%,-12%,·,15%,?,·,-1%

# More entries follow:
SMILES,Cruzain Triton,StopGo reporter,RE007 growth inh,Cruzain inh noDet,LASV entry inh,Marburg entry inh,NS1 function inh,SARS PLP yeast
O=C(Cn1ccccc1=O)c1ccc(Cl)cc1,·,9%,4%,·,·,·,6%,1%
COc1ccc(C(=O)OCc2cc(=O)n3nc(-c4cccs4)sc3n2)cc1,-3.5%,-11%,·,3%,3%[46.1 µM],·,·,·
COC(=O)c1cccc(NC(=O)Nc2ccc(Cl)cc2)c1,·,5%,9%,·,-27%,?,-3%,-1%
S=c1[nH]nc(NCCCN2CCOCC2)s1,·,-5%,-2%,·,·,·,4%,1%
COc1ccccc1CNC(=O)/C=C/c1ccc(S(=O)(=O)N2CCOCC2)cc1,·,-19%,-8%,·,-4%,-8%[46.1 µM],·,0%
C=CCn1c(SCC(=O)Nc2cccc(C)c2)nnc1-c1cnccn1,-1.4%,-8%,0%,11%,-10%,-4%,-12%,8%
COC(=O)c1ccc(C(C(=O)NC2CCCCC2)N(CCc2ccccc2)C(=O)Cc2cccs2)cc1 (stereo not drawn),0.1%,-11%,8%,13µM*,-12%,2%,-4%,8%
Cc1ccc(C(=O)NC(C)C2CC3CCC2C3)cc1 (stereo not drawn),·,35%[activator],38%,·,6%,6%[46.1 µM],·,·
CN(C)/C=C/c1onc(-c2c(Cl)cccc2Cl)c1C#N,·,-24%,8%,·,?,?,·,-1%
CCN1CCN(Cc2ccc(NC(=O)c3ccc(C)c(NC(=O)c4c[nH]c5cc(C(F)(F)F)ccc5c4=O)c3)cc2C(F)(F)F)CC1,·,?,-2%&-13%,·,·,·,?,-6%
CC1CCCCN1C(=O)CCS(=O)(=O)Cc1ccccc1 (stereo not drawn),·,1%,2%,·,7%[46.1 µM],-21%[46.1 µM],-3%,7%
COc1ccc(NS(=O)(=O)c2ccc(S(=O)(=O)N3CCCC3)cc2)cc1Cl,-10%,7%,7%,1%,-15%,0%,0%,-11%
CCOc1cc(C(=O)O)ccc1OCCOc1ccccc1,·,4%,-19%,·,·,?,1%,-1%
CCCS(=O)(=O)N1CCC(C(=O)N2CCc3ccccc3C2)CC1,-2.0%,-10%,10%,0%,18%,1%,0%,-4%
COc1ccc2cc(/C=N/NC(=O)CN(c3ccccc3)S(=O)(=O)c3ccccc3)c(Cl)nc2c1,-15%,·,·,-22%,-8%,0%,5%,-30%
C/C(=N\NC(N)=S)C1(C)CCCCC1,?,-4%,35%,-16%,-37%,-31%,5%,18µM*
COc1ccc(S(=O)(=O)N2CCC(c3ccncc3)CC2)cc1Cl,2.4%,-24%,·,2%,-1%[46.1 µM],·,·,·
CCOC(=O)N1CCC(NC(=O)C2CCN(C(=O)c3cc4oc(C)cc4n3Cc3c(F)cccc3Cl)CC2)CC1,·,-8%,7%,·,·,·,-8%,0%
O=C(Cc1ccccc1Cl)N1CCN(c2ncccn2)CC1,·,5%,-4%,·,-7%,-11%[46.1 µM],·,-1%
CC(C)c1csc(CN2CCC(N3CCC(C(=O)NCC4CCCO4)CC3)CC2)n1 (stereo not drawn),·,-8%,1%,·,-3%[46.1 µM],28%[46.1 µM],0%,-1%
COc1ccc(/C=N/n2c(C)nnc2C)c(OC)c1,4.4%,-8%,0%,-12%,8%,-15%,-11%,4%
CCOC(=O)COc1ccc2c(c1)C(=O)CC1(CCN(C(C)=O)CC1)O2,-1.0%,6%,-12%,1%,-4%,13%,-19%,1%
CCOc1ccc(N2CC(c3nc4ccccc4n3Cc3ccccc3F)CC2=O)cc1 (stereo not drawn),-11%,-18%,·,-7%,-6%[46.1 µM],?,·,·
CS(=O)(=O)Nc1ccc(C2=NN(S(C)(=O)=O)C(c3ccc4nccnc4c3)C2)cc1 (stereo not drawn),·,-5%,-11%,·,10%[46.1 µM],1%[46.1 µM],6%,1%
CC(=O)N1CCc2cc(S(=O)(=O)NCCC(=O)N3CCN(c4ccccn4)CC3)ccc21,3.4%,-19%,-15%,-2%,7%,-2%&-2%,-2%,0%
Cc1oc2ncn(C)c(=O)c2c1C(=O)N(Cc1ccccc1)C(C)C,-1.4%,6%,·,1%,2%[46.1 µM],·,·,·
COc1ccc2c(c1)c1ncn(Cc3ccc(F)cc3)c(=O)c1n2C,·,-11%,1%,·,?,-14%,-7%,-1%
